Beta2AR agonist – agonists of human beta-2 adrenergic receptor inducing internalization; P07550; Am2.2-beta2AR cells, FAP receptor internalization, flow cytometry; reference of the scale not given here; response, % (concentration not given with the values); 340,000 tested, 0.43% active;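 active = response above a set limit, near 3 SD of response in nonfluorescent compounds, cut at about 42% in these data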;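 also: stock transfer was 100 nL into about 11 µL; a reference agonist was the positive control; negative values mostly stem from fluorescent compounds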
Target sequence (P07550 whole entry, looked up): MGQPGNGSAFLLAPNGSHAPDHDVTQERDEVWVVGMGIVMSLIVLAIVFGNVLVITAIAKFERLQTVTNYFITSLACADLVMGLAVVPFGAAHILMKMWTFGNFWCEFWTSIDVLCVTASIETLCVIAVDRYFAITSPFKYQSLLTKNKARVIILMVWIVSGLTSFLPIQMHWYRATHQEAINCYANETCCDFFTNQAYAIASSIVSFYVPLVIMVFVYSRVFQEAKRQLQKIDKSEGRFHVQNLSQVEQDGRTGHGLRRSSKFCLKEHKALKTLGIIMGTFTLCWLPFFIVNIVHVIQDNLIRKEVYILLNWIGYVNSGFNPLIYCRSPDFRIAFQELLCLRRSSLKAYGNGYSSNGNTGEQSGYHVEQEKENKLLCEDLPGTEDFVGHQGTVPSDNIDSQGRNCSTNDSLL
ALR H2O2 inh – human ALR oxidase inhibition via reduced H2O2 | P55789 | purified ALR, DTT oxidation, H2O2 HRP-luminol luminescence | inhibition, % (concentration not given with the values) | 290,000 tested, 3.8% active | AID 485317;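 active = mean and each replicate at 75% or more; inconclusive = only one of the two met; inactive = neither met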;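 also: stock transfer was 7.5 nL into about 7.5 µL; 0% = neutral wells and 100% = wells with inactivated enzyme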
Target sequence (P55789 whole entry, looked up): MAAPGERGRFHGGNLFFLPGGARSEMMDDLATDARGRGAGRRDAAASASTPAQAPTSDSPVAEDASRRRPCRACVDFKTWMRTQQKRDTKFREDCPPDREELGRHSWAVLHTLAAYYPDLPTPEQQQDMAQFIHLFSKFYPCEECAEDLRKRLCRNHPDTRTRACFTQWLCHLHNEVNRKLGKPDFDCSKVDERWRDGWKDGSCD
T cruzi inh – T. cruzi replication inhibition. inhibition, % (test concentration not listed). 300,000 tested, 1.4% active. T. cruzi beta-gal in NIH3T3, luminescence, 90 h;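 active = mean inhibition across valid replicates above about 55%, limit read from the data; inconclusive = mean below that limit but half or more replicates reach it; inactive = mean below it, under half of replicates reach it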;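 also: signal also drops with host cell toxicity which is not excluded here; 0% = plate median of DMSO wells and 100% = zero luminescence signal; higher percent means less beta-gal luminescence so fewer parasites; stock transfer was 50 nL into about 50 µL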
Beta apoptosis – beta cell apoptosis inhibition | AID 435005 | 300,000 tested, 0.8% active | INS-1E cytokine-induced death, ATP luminescence, 48 h; percent of positive-control rescue, neutral wells zero | protection from apoptosis, % (concentration not given with the values);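 active = all replicates at 75% or more, or half of them and the mean; inconclusive = half reach 75% but not the mean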;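 also: 0% = cytokine-treated negative control wells and 100% = positive control rescue; higher means more ATP so stronger rescue from cytokine killing; wells of about 40 µL received 100 nL stock; the first replicate is given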
Calb FLC – C. albicans growth modulation with fluconazole; 300,000 tested, 0.57% active; AID 1979; C. albicans CaCi-2 (fluconazole-resistant clinical isolate) + fluconazole, Alamar Blue growth, 48 h; growth inhibition, % (test concentration not listed);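 active = most replicates above 75%; inconclusive = exactly half above 75%; inactive = most below 75%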;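 also: all wells also contain fluconazole at 8 µg/ml as a sub-toxic cotreatment; 0% = median of DMSO wells and 100% = median of geldanamycin control wells; wells of about 8 µL received 7.5 nL stock; the first replicate is given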
Bfl-1 A1 inh – inhibitors of the anti-apoptotic protein A1, read as caspase activation; MEF A1-2A-BIM cells, Caspase-Glo 3/7 luminescence, 3 h; percent of clofoctol response, vehicle zero; caspase activation, % (no concentration beside the values); 330,000 tested, 0.066% active;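 active = over half of replicate activation scores above 10%, or exactly half above 10 with the replicate mean above 10; inconclusive = replicate mean below 10 yet half the replicates above 10; inactive = over half of replicates below 10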;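 also: wells of about 30 µL received 50 nL stock; many hits fall short of the cut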
LANA-H2A inh – blocks KSHV LANA binding to histone H2A/H2B; inhibition, % (test concentration not listed); 320,000 tested, 0.6% active; cell-free LANA-H2A/H2B peptide, fluorescence polarization; in the data active = inhibition mostly above about 10%, no sharp cut-off; inactive = mostly below about 6.7%;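 also: stock transfer was 7.5 nL into about 10 µL; 0% = median of vehicle wells and 100% = median of positive control wells; one replicate is shown; the record names a cut of 25% in any replicate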
Ecoli rRNA inh – inhibitors of bacterial rRNA selective over humanized ribosomes; E. coli WT GFP vs humanized-ribosome RFP mutants, fluorescence, 24 h; active compounds read low; DMSO median 0, no signal -100; GFP signal change (wild-type ribosome), % (no concentration beside the values); 350,000 tested, 1.6% active; AID 720706;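 active = significant combined selectivity score with lowered wild-type GFP, culture density cut under 30%, mutant RFP and density less affected; inactive = any of these conditions unmet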; also: one replicate is shown; some compounds called inactive have numbers as strong as hits
Ecoli rRNA inh OD600 – also measured in Ecoli rRNA inh; calls as there; OD600 change, %; measured here: OD600 growth;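 optical density of the mix in the first replicate; 0 = DMSO median and -100 = no signal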
Ecoli rRNA inh RFP – second read-out of Ecoli rRNA inh, no call of its own (marks repeat the call); RFP signal change, %; measured here: RFP humanized mutant strains;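 first replicate; 0 = DMSO median and -100 = no signal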
An asterisk follows results filed as active; ? = inconclusive; . = no result given; & = joins results of further samples.

SMILES	Beta2AR agonist	ALR H2O2 inh	T cruzi inh	Beta apoptosis	Calb FLC	Bfl-1 A1 inh	LANA-H2A inh	Ecoli rRNA inh	Ecoli rRNA inh OD600	Ecoli rRNA inh RFP
Cc1cccc(NC(=O)c2ccc(S(=O)(=O)N3CCC(C)CC3)cc2)n1	1	-2	11	-5	-15	-0.3	-5.1	2	10	-2.3
COc1ccc(NC(=O)CCN2C(=O)[C@@H]3[C@H](C2=O)[C@H]2C=C[C@@H]3C2)cc1	-4	.	-3	5	-1	0.1	2.2	13	5	7.5
c1ccc(CCCc2nc(-c3cccnc3)no2)cc1	-3	.	0	-10	3	-0.5	-1.8	1	0	1.2
CC(=O)N1CCN(S(=O)(=O)c2cccc(C(=O)OCC(=O)N(Cc3ccccc3)C(C)(C)C)c2)CC1	-1	1	.	2	.	0.6	-5.1	3	1	0.8
CCCC[C@@H]1CNCCN1CC1(c2ccccc2)CC1	2	0	-15	3	-6	?	-4.0	-2	-11	-0.5
CCc1c(C2(O)CCCCC2)[nH]c2ccc(C#N)cc12	4	.	-2	.	11	0.0	3.4	-15	-14	-9.4
Cc1ccc(S(=O)(=O)c2nnn3c2nc(NC2CCN(Cc4ccccc4)CC2)c2ccccc23)cc1C	41	-3	59*	.	5	1.0	1.1	.	.	.
CC(C)(C)n1nc2c(c1NC(=O)Cc1ccccc1)CS(=O)(=O)C2	-1	.	.	-3	-4	1.0	-5.6	9	9	-0.5
Cc1ncsc1CCC(=O)N1CCCC(Nc2ccc(F)c(F)c2)C1 (stereo not drawn)	-2	35	12	.	-5	0.4	-1.4	-4	2	0.8
Cc1ccc(-c2csc(NC(=S)NC(=O)c3cc4ccccc4o3)n2)cc1	1	-4	-16	.	-1	-0.3	3.8	.	.	.
COc1cc(C(=O)NNC(=S)NC(=O)c2ccccc2C)cc(OC)c1OC	-6	19	-5	12	-12	-0.3	0.0	.	.	.
COc1c(/C=N/Nc2nc(N3CCCCC3)nc(N3CCCCC3)n2)cccc1[N+](=O)[O-]	-3	-16	50	29	1	-0.1	2.1	.	.	.
O=S(=O)(c1ccc(F)cc1)N1CCN(CC(O)COc2ccccc2F)CC1 (stereo not drawn)	2	-31	1	-4	2	2.4	-0.2	-4	-2	1.0
CN1CCN(/N=C/c2ccc(Br)cc2)CC1	3	-1	16	0	-16	0.0	1.8	9	2	-1.6
Fc1ccc(-n2nnc(-c3ccnc4ccccc34)n2)cc1	-3	-1	-15	3	-5	-0.5	1.1	5	6	1.9
Cc1cccc(N2CCN(C(=O)c3ccoc3C)CC2)c1C	1	6	-4	-9	-1	-0.1	-3.0	.	.	.
O=C(Nc1ccccc1C(=O)N/N=C/c1ccccc1)c1ccco1	7	-11	-10	-3	14	.	-4.8	-7	-9	2.9
CCOC(=O)Nc1nc(-c2ccccc2)c(C(=O)c2ccc(Cl)cc2)s1	11	-1	22	19	55	1.5	-2.9	.	.	.
CSc1oc(-c2ccco2)nc1S(=O)(=O)c1ccc(C)cc1	-7	-28	5	6	-2	0.6	1.2	4	1	-0.6
Cc1onc(-c2ccccc2)c1C(=O)NCc1cccs1	2	4	-9	-6	-4	-0.7	-2.6	.	.	.

Single records, as listed above. Order of screens: Beta2AR agonist | ALR H2O2 inh | T cruzi inh | Beta apoptosis | Calb FLC | Bfl-1 A1 inh | LANA-H2A inh | Ecoli rRNA inh | Ecoli rRNA inh OD600 | Ecoli rRNA inh RFP
Profile of `Cc1cccc(NC(=O)c2ccc(S(=O)(=O)N3CCC(C)CC3)cc2)n1` = 1 | -2 | 11 | -5 | -15 | -0.3 | -5.1 | 2 | 10 | -2.3
Profile of `CCOC(=O)Nc1nc(-c2ccccc2)c(C(=O)c2ccc(Cl)cc2)s1` = 11 | -1 | 22 | 19 | 55 | 1.5 | -2.9 | . | . | .
Profile of `Cc1ncsc1CCC(=O)N1CCCC(Nc2ccc(F)c(F)c2)C1` (stereo not drawn) = -2 | 35 | 12 | . | -5 | 0.4 | -1.4 | -4 | 2 | 0.8

Arranged by value in Ecoli rRNA inh (smallest number first): some entries from above.
smiles	Beta2AR agonist	ALR H2O2 inh	LANA-H2A inh	Ecoli rRNA inh	Ecoli rRNA inh OD600	Ecoli rRNA inh RFP
O=C(Nc1ccccc1C(=O)N/N=C/c1ccccc1)c1ccco1	7	-11	-4.8	-7	-9	2.9
CC(C)(C)n1nc2c(c1NC(=O)Cc1ccccc1)CS(=O)(=O)C2	-1	.	-5.6	9	9	-0.5
COc1ccc(NC(=O)CCN2C(=O)[C@@H]3[C@H](C2=O)[C@H]2C=C[C@@H]3C2)cc1	-4	.	2.2	13	5	7.5

Continued:
SMILES	Beta2AR agonist	ALR H2O2 inh	T cruzi inh	Beta apoptosis	Calb FLC	Bfl-1 A1 inh	LANA-H2A inh	Ecoli rRNA inh	Ecoli rRNA inh OD600	Ecoli rRNA inh RFP
COC(=O)CC1SC(=O)NC1=Nc1ccc(C)cc1 (stereo not drawn)	5	10	-13	.	-10	-0.5	3.5	.	.	.
O=C(NC1CCCC1)C(=O)N(Cc1cccnc1)C(C(=O)NCc1ccco1)c1ccccc1F (stereo not drawn)	-6	-9	10	1	-2	-0.2	-14	6	1	-0.5
CCCN1/C(=C2/SC(=S)N(CC)C2=O)C=Cc2ccccc21	-10	11	16	22	-7	-0.4	-5.0	.	.	.
COc1ccc(-c2csc3ncn(-c4ccccc4)c(=O)c23)cc1OC	3	0	-6	-6	39	0.3	0.5	-5	-7	-4.3
COc1ccc2cc(C#N)c(SCC(=O)Nc3nonc3C)nc2c1	13	.	22	7	-4	-1.8	-1.7	0	0	-5.5
CC(C)OC(=O)CSc1nnc(-c2ccc(Cl)cc2)n1N	-1	2	3	2	-14	-0.1	6.5	.	.	.
O=C(COc1ccc(-c2nnco2)cc1)Nc1ccc(C(F)(F)F)cc1	-2	-4	20	0	1	-0.1	1.0	-1	3	-1.1
CCc1noc(C)c1C(=O)N(CC)CC(=O)Nc1ccccc1C(F)(F)F	4	-7	-12	-6	9	-0.4	2.0	9	20	-2.5
COc1ccc(C(C)C)cc1S(=O)(=O)NCCCn1ccnc1	-5	8	12	-9	5	0.6	8.3	8	1	2.6
COc1ccc(Cc2noc(CN(C)CCc3ccccc3)n2)cc1OC	-6	4	7	0	4	-0.1	-5.8	-6	-10	-6.7
O=C(O)CSCCC(=O)Nc1ccc(F)cc1	7	-4	-7	0	9	1.4	28*	.	.	.
CCCCn1c(CNC(=O)CCC)nc2ccccc21	-16	2	-6	-4	10	0.4	-0.9	0	-3	-2.1
CC1=Nc2ccccc2NC(=O)C1Sc1nnc(C)s1 (stereo not drawn)	-20	-2	-11	2	-5	-1.8	0.9	.	.	.
Cc1ccc(NC(=O)c2ccc(NCc3ccco3)c([N+](=O)[O-])c2)cc1Cl	-2	-15	10	14	-15	31*	5.0	.	.	.
Cc1ccsc1C(=O)NNC(=O)COc1ccccc1Cl	-1	4	-6	1	-3	0.3	2.0	0	-1	-1.6
CCCN(CC(=O)Nc1cc(C)on1)S(=O)(=O)c1cccc(C(F)(F)F)c1	2	-2	11	2	9	0.1	-4.8	10	10	-2.5
C=CCc1ccc(OCCCCN2CC(C)OC(C)C2)c(OC)c1 (stereo not drawn)	0	-12	13	-2	-20	0.7	0.8	.	.	.
CC(=O)Nc1cccc(OC(=O)c2ccoc2C)c1	0	1	-12	1	20	0.5	-1.7	.	.	.
Cc1ccc(S(=O)(=O)Nc2c(C)nn(C)c2C)cc1	6	1	-7	-1	3	-0.5	-2.7	6	-2	-3.5
Cc1ccc(-c2nnc(N3CCCCC3)c3ccccc23)cc1	1	2	36	9	12	-0.8	-2.0	-29	-34	-7.3
Cc1ccc(NC(=O)C2CC(O)CN2C(=O)OCc2ccccc2)c(C)c1 (stereo not drawn)	6	.	0	3	-4	-0.8	7.6	2	2	-1.3
COc1ccc(CCNC(=O)c2cccc([N+](=O)[O-])c2)cc1OC	0	-32	-1	-8	-3	1.8	2.7	-1	5	-1.1
C=CCC(C=C)S(=O)(=O)c1ccc(C)cc1 (stereo not drawn)	-4	-2	4	-6	-9	0.3	-4.0	.	.	.
CCc1ccc(C2=NN(CCC(=O)NCC3CCCO3)C(=O)CC2)cc1 (stereo not drawn)	-5	2	1	6	-4	0.6	0.8	13	16	1.5
O=C(OC(c1ccccc1)c1nccc2ccccc12)c1cccc([N+](=O)[O-])c1 (stereo not drawn)	-9	-1	9	7	9	1.2	-0.8	.	.	.
Cc1cc(=O)[nH]c(N/N=C/C2=C(N3CCOCC3)C(=C\c3ccc(Cl)cc3)/CC2)n1	-10	98*	-7	-6	6	-0.4	-3.9	12	11	9.5
O=C(CCC1CCN(C(=O)c2ccco2)CC1)NCc1ccc(F)cc1	-9	-7	-2	.	-4	0.8	-2.3	13	5	1.2
O=C(Nc1cc([N+](=O)[O-])ccc1C(=O)Nc1cccnc1)c1ccccc1	-12	0	9	4	-7	-0.6	0.1	-2	6	-3.7
COc1cc(NC(=O)c2ccc3c(c2)OCO3)c2ncccc2c1	5	-6	12	2	2	-1.1	0.5	.	.	.
COc1ccc(NC(=O)COC(=O)CN2C(=O)C3CC=CCC3C2=O)c([N+](=O)[O-])c1 (stereo not drawn)	-8	-2	.	2	.	-0.1	0.7	.	.	.
C=CCN=Cc1c(C)[nH]n(-c2ccccc2)c1=O	-4	-8	-34	-10	-6	-0.5	0.1	8	9	1.8
CC(C)N(Cc1ccccc1)C(=O)c1ccc2nsnc2c1	-5	7	-1	-4	4	0.1	3.9	-7	-4	-1.7
CC[C@H](C)[C@@H](C(=O)N1CCNCC1)n1cc([C@@H](N)Cc2ccc(O)cc2)nn1	-2	-1	-14	2	-1	-0.1	1.3	5	4	-11
COCCNC(=S)N(Cc1cccs1)Cc1cc2cccc(C)c2[nH]c1=O	1	-3	6	4	41	-0.3	0.3	14	12	-0.9
Cc1cc(C)c(OCC(=O)Nc2cccc(O)c2)cc1C	-3	-2	-15	-5	0	-0.7	-5.0	.	.	.
Nc1cc(N)nc(SCC(=O)N2CCN(C(=O)c3ccco3)CC2)n1	-4	-7	-12	0	-5	-0.5	-0.2	.	.	.
CC[C@H](C)C(=O)O[C@H]1C[C@@H](C)C=C2C=C[C@H](C)[C@H](CC[C@@H]3C[C@@H](O)CC(=O)O3)[C@H]21	-1&-4	-24&-23	-12	4&25	.	-0.6&0.1	1.7	1&0	-8&0	2.5&0.9
O=C(NNC(=O)c1ccc2ccccc2c1O)c1ccccc1Cl	-1	-12	10	2	86*	-1.6	-1.5	.	.	.
CCCn1c(NCc2ccc(N(C)C)cc2)nc2ccccc21	6	.	7	4	13	0.6	-5.7	2	-2	-2.0
COc1cc2[nH]c(=S)nc(NCc3ccc(Cl)cc3)c2cc1OC	2	-1	23	4	-9	1.1	7.2	-4	0	1.0
CCS(=O)(=O)Nc1ccc(-c2ccc(NS(=O)(=O)CC)c(OC)c2)cc1OC	4	13	-5	3	0	0.2	3.2	.	.	.
C/C(=N\NC(=O)COc1ccc2ccccc2c1)c1cccs1	-7	-5	3	-9	5	-0.4	-0.2	6	8	-0.4

Screening results from PubChem BioAssay.

A portion of the library; rates above refer to the full screens.
